High-throughput results as filed in PubChem.
RN4220 kill – growth inhibition of S. aureus RN4220, primary screen, OD600; 16 h; inhibition, % (no concentration beside the values); 330,000 tested, 0.33% active;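 active = z-score of -3 or lower and OD600 up to 0.18 on both plates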;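 also: plate controls were untreated cells for no effect and reference antibiotic for full effect; stock transfer was 100 nL into about 80 µL; one replicate is shown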
Mtb hypoxia inh – PubChem AID 1159583; M. tuberculosis hypoxia-regulated fluorescent reporter, fluorescence; fluorescence inhibition, % (concentration not given with the values); 300,000 tested, 0.1% active;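 active = 35 to 45% if threefold the growth effect, above 45% if 1.5-fold the growth effect; inactive = the rest, general growth blockers included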;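 also: wells of about 50 µL received 100 nL stock; 0% = vehicle wells and 100% = reference inhibitor wells; whole bacteria with a GFP reporter of the hypoxia response; strong numbers were not always called active; many hits fall short of the cut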
ugtP null kill – growth inhibition of ugtP-null S. aureus, primary screen, RN4220 ugtP deletion, OD600 | 16 h; some inactives read as strong as hits | growth inhibition, % (no concentration beside the values) | 330,000 tested, 0.54% active | AID 1259309, 2017;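 active = z-score under -3 and OD600 up to 0.15 on both plates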;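 also: plate controls were untreated wells for no effect and antibiotic for full effect; wells of about 80 µL received 100 nL stock; the first replicate is given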
PrP 5UTR inh – inhibition of PrP 5' UTR reporter expression. cell-based PrP 5' UTR mRNA reporter, plate reader. inhibition, % (no concentration beside the values). 340,000 tested, 0.35% active;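 active = every replicate at 50% or more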;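 also: 0 = median of the neutral control wells; tested in H4 reporter cells; numbers are from one replicate; inactives centre near -14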
Bead autofluor – counter-screen for toxin protease inhibitors: compound fluorescence; 360,000 tested, 3.1% active; compound autofluorescence counterscreen, microsphere flow cytometry; stronger effect = higher value; AID 624483; fluorescence intensity (test concentration not listed);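 active = at least 3 SD above the mean of all compounds, about 16000 in these data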;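 also: 100 nL of 1 mM stock went into each well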
BJeLR lethal – MLPCN primary cell-based screen for lethality selective to Ras in HRASV12 cells. inhibition, % (test concentration not listed). 300,000 tested, 0.17% active. BJeLR (HRASV12) viability, CellTiter-Glo ATP luminescence, 48 h; reference of the scale not given here;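 active = replicate mean above 50%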;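 also: 50 nL library stock added to about 25 µL; numbers are from one replicate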
Mtb hypoxia inh growth – further read-out of Mtb hypoxia inh, marked with its call; growth inhibition, %; measured here: M. tuberculosis growth (absorbance);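 0% = vehicle and 100% = reference antibiotic; read after six days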
The depositor's hits bear a star; . = not tested or not shown.

SMILES | RN4220 kill | Mtb hypoxia inh | Mtb hypoxia inh growth | ugtP null kill | PrP 5UTR inh | Bead autofluor | BJeLR lethal
Cc1ccc(NCC(=O)N/N=C/c2ccc(C(=O)O)cc2)cc1 | . | . | . | . | -15 | 5809 | 1
CCN(CC)S(=O)(=O)c1cccc(-c2nnc(-c3ccc(C)cc3)o2)c1 | -1.8 | 2 | 0 | -2 | -32 | 5860 | -2
CC(=NN=C(C)c1ccc(O)cc1)c1ccc(O)cc1 | 4.8 | -2 | 6 | -3 | -39 | 3445 | .
CC(Sc1nc(-c2ccccc2)cc(C(F)(F)F)n1)C(=O)Nc1sc2c(c1C#N)CCC2 (stereo not drawn) | -1.8 | 12 | 1 | 7 | -35 | 10006 | 7
OC(Cc1ccnc2ccccc12)C(Cl)(Cl)Cl (stereo not drawn) | 4.5 | 10 | 2 | -1 | -18 | 4067 | .
COC(=O)C1CCN(C(=O)COC(=O)C2CCN(S(=O)(=O)c3ccc(C)c(C)c3)CC2)CC1 | 3.5 | 9 | 1 | 11 | -20 | 6107 | 3
O=C1CCc2cc(S(=O)(=O)Nc3ccc(F)cc3)ccc2N1 | 0.7 | -6 | -6 | -3 | 5 | 4036 | .
O=C(CSc1nc2ccccc2o1)NC1CCS(=O)(=O)C1 (stereo not drawn) | 2.5 | 14 | 7 | 0 | -20 | 4201 | .
O=C(OCC(=O)N1CCN(c2ccccc2)CC1)c1ccccc1OC(F)F | 3.3 | 6 | 2 | 10 | -12 | 5992 | 6
O=C(Cn1ncc2c([nH]c3ccccc32)c1=O)NCC1CCN(Cc2ccc(F)cc2)CC1 | -0.4 | 11 | 2 | -7 | 1 | 5105 | -5
Cc1ccccc1OCC(O)CN(CCO)Cc1ccccc1 (stereo not drawn) | 2.0 | 5 | 1 | 14 | -21 | 3666 | -6
C[C@H](CO)N1C[C@H](C)[C@@H](CN(C)S(=O)(=O)c2ccccc2)Oc2ccc(NC(=O)Cn3cnnn3)cc2C1=O | -9.8 | 2 | 15 | -6 | -7 | 4252 | .
O=C(Nc1ccc(S(=O)(=O)Nc2ncccn2)cc1)c1cc([N+](=O)[O-])ccc1Cl | 0.1 | 14 | 13 | 11 | -18 | 3408 | -2
CCOc1ccc(NC(=O)C2C3C=CC4(CN(C(C(=O)OC)C(C)C)C(=O)C24)O3)cc1 (stereo not drawn) | -1.5 | . | . | 3 | -12 | 5819 | -8
O=c1cc(O)c2c(=O)n(Cc3ccccc3)c3ccccc3c2o1 | 61 | -3 | 2 | 70 | -16 | 3241 | -4
COc1ccccc1CNC(=O)c1ccc(-c2ccccc2Cl)o1 | -0.1 | -3 | 3 | -13 | 14 | 4152 | -12
COC(=O)Cn1cc(/C=C2\C(=O)NC(=O)N(c3ccc(OC)cc3)C2=O)c2ccccc21 | 2.5 | -6 | -2 | 10 | 4 | 4705 | 4
O=C1CN(S(=O)(=O)c2ccccc2)CC(=O)N1CCc1ccccc1 | 1.5 | -5 | -2 | 3 | -7 | 4585 | -12
O=C(NC(=S)NC1CCCCC1)c1ccc(Cl)cc1 | -0.7 | 15 | 13 | 83 | -66 | 5870 | -1
Cc1ccc(-c2noc(CCC(=O)N3CCCc4ccccc43)n2)cc1 | 6.4 | . | . | 16 | -23 | 2391 | -5
CCCCn1c(SCC(=O)N2CCCCC2C)nc2cc(S(N)(=O)=O)ccc21 (stereo not drawn) | 0.1 | . | . | 8 | -15 | 2894 | -7
CSc1ccccc1NC(=O)c1cnc2scc(C)n2c1=O | 4.6 | 13 | 12 | 12 | -24 | 5484 | 6
CN1CCN(CCOCCOc2c(Cl)cc(Cl)cc2Cl)CC1 | 5.2 | 9 | 22 | 5 | -10 | 3047 | 3
CCOC(=O)CSc1nc2ccccc2n1CC(=O)N(C(C)C)C(C)C | 4.4 | 8 | 7 | 6 | -28 | 11779 | 0
Cc1cc(OCC(=O)NC2CC(C)(C)NC(C)(C)C2)c2c(C)c(C)c(=O)oc2c1 | 4.6 | -2 | -11 | 12 | -10 | 3302 | -4
CCCCOc1ccc(/C=N/NC(=O)C2CCCNC2=O)cc1 (stereo not drawn) | . | . | . | . | -14 | 4117 | 1
CCOC(=O)c1ccc(NC(=O)C(C)N2C(=O)c3ccccc3C2=O)cc1 (stereo not drawn) | 5.3 | 16 | 12 | 5 | -10 | 10269 | 1
COc1ccc(OC)c(S(=O)(=O)N(C)CC(=O)N2CCCCC2)c1 | 3.5 | 0 | -7 | 6 | -12 | 4581 | -7
Cc1ccccc1N(CC(=O)NCC1CCCO1)C(=O)C1(C)CC(=O)N=C2C=CC=CN21 (stereo not drawn) | 2.4 | 4 | 13 | 0 | -24 | 23341* | 3
CCN(CC)C(=O)CSc1ncnc2c1nnn2-c1ccc(OC)cc1 | 4.2 | 9 | 6 | 0 | -5 | 3309 | -5
COc1ccc(OC)c(N2C(=O)CC(C(C)c3ccccc3)C2=O)c1 (stereo not drawn) | 4.3 | 1 | 5 | 4 | -20 | 3012 | -15
O=C(COc1ccccc1C(=O)Nc1ccccc1)NCCc1ccccc1 | 2.0 | 7 | 8 | -1 | -54 | 4509 | -1
CC(C)(C)NC(=O)c1cc([N+](=O)[O-])ccc1N1CCCCC1 | 0.8 | 13 | 5 | -1 | -22 | 2601 | 0
FC(F)(F)c1cccc(Cc2noc(CN3CCCC(CN4CCCC4)C3)n2)c1 (stereo not drawn) | 0.7 | 4 | 6 | 8 | 1 | 4529 | 10
Cc1cc(F)c(F)cc1C(=O)N1CCCC1 | 3.1 | 8 | -4 | 3 | -19 | 2580 | -2
Cc1noc(C)c1S(=O)(=O)N1CCCC(C(=O)N2CCN(C3CCCCC3)CC2)C1 (stereo not drawn) | 1.5 | . | . | -8 | 7 | 5990 | -6

Single records (already shown). Order of values: RN4220 kill, Mtb hypoxia inh, Mtb hypoxia inh growth, ugtP null kill, PrP 5UTR inh, Bead autofluor, BJeLR lethal
COc1ccc(OC)c(N2C(=O)CC(C(C)c3ccccc3)C2=O)c1 (stereo not drawn) as listed: 4.3, 1, 5, 4, -20, 3012, -15
CCOC(=O)CSc1nc2ccccc2n1CC(=O)N(C(C)C)C(C)C as listed: 4.4, 8, 7, 6, -28, 11779, 0

(cont.)
SMILES | RN4220 kill | Mtb hypoxia inh | Mtb hypoxia inh growth | ugtP null kill | PrP 5UTR inh | Bead autofluor | BJeLR lethal
O=C(Nc1ccc(N2CCCCC2)cc1)c1cccnc1Cl | -4.0 | 5 | 9 | -3 | -13 | 5320 | -1
Cc1ccc(CN2CCC(n3nccc3NC(=O)c3ccc4c(c3)OCO4)CC2)o1 | 0.2 | 8 | 5 | 5 | -7 | 6281 | -1
O=C(CC(NC(=O)C(F)(F)F)c1ccccc1)Nc1nnc(CCc2ccccc2)s1 (stereo not drawn) | 9.0 | -4 | 3 | -1 | -13 | 1979 | -5
CCOc1ccc(N(CC(=O)NC2CCCC2)C(=O)CCC(=O)Nc2ccccn2)cc1 | 1.9 | . | . | 1 | -10 | 2578 | .
CC(=NNc1nc(C)cc(-c2ccccc2)n1)c1ccc(O)cc1 | 5.1 | 7 | 11 | -9 | . | . | .
COc1ccc(CN2CCNC(=O)C2CC(=O)NCc2cccc(C)n2)c(OC)c1 (stereo not drawn) | 2.3 | 7 | 3 | 5 | 6 | 4355 | 4
COc1ccc(CNC(=O)NC(C)(C)c2cccc(C(C)(C)NC(=O)NCc3ccc(OC)cc3)c2)cc1 | -4.8 | 5 | -4 | 5 | -7 | 8929 | -1
COc1ccc(NC(=O)Nc2cccc3c2OC(CN(C)C(=O)Nc2c(C)noc2C)C(C)CN(C(C)CO)C3=O)cc1 (stereo not drawn) | 1.6 | 7 | 9 | -8 | . | . | .
O=c1cc(-c2cccs2)oc2ccc(Cl)cc12 | 4.1 | 7 | 13 | -9 | -48 | 22409* | -5
Cc1ccc(NC(=O)COC(=O)Cn2cnc3c2c(=O)n(C)c(=O)n3C)cc1Cl | 6.7 | 2 | -11 | 5 | -27 | 4298 | 2
COc1ccc2sc(N(CCN(C)C)C(=O)c3ccc4ccccc4c3)nc2c1 | -1.2 | -2 | 4 | -12 | -10 | 4521 | -8
O=C(NCc1ccccc1)c1cc(-c2ccco2)on1 | 0.6 | 4 | 9 | 1 | -33 | 12011 | -5

Part of the list above in another layout.
Cc1cc(OCC(=O)NC2CC(C)(C)NC(C)(C)C2)c2c(C)c(C)c(=O)oc2c1
  RN4220 kill: 4.6	Mtb hypoxia inh: -2	Mtb hypoxia inh growth: -11	ugtP null kill: 12	PrP 5UTR inh: -10	Bead autofluor: 3302	BJeLR lethal: -4

CCCCOc1ccc(/C=N/NC(=O)C2CCCNC2=O)cc1 (stereo not drawn)
  RN4220 kill: .	Mtb hypoxia inh: .	Mtb hypoxia inh growth: .	ugtP null kill: .	PrP 5UTR inh: -14	Bead autofluor: 4117	BJeLR lethal: 1

CCOC(=O)c1ccc(NC(=O)C(C)N2C(=O)c3ccccc3C2=O)cc1 (stereo not drawn)
  RN4220 kill: 5.3	Mtb hypoxia inh: 16	Mtb hypoxia inh growth: 12	ugtP null kill: 5	PrP 5UTR inh: -10	Bead autofluor: 10269	BJeLR lethal: 1

Continuation.
SMILES | RN4220 kill | Mtb hypoxia inh | Mtb hypoxia inh growth | ugtP null kill | PrP 5UTR inh | Bead autofluor | BJeLR lethal
COc1ccc(CNC(=O)CSc2nc(-c3ccccc3)cc(-c3cccs3)c2C#N)cc1 | 4.0 | 6 | 8 | -4 | -45 | 6269 | -4
CC(C)(C)C(=O)N1CCN(c2c(Cl)cccc2[N+](=O)[O-])CC1 | 4.6 | -1 | 7 | 1 | -18 | 4672 | 7
COc1cc(C=NNC(=O)Cc2csc(N3CCOCC3)n2)cc(OC)c1O | 3.2 | 2 | 3 | 3 | . | . | .
O=C(Nc1cccnc1Cl)c1cc2ccccc2o1 | 4.5 | -1 | 8 | -1 | -84 | 3420 | 0
COC(=O)C1=C(C)N(Cc2ccccc2)C(=O)N[C@H]1c1ccc(Br)cc1 | . | . | . | . | -14 | 4339 | -9
CC(Sc1nnnn1-c1ccc(Cl)cc1)C(=O)NCC(=O)Nc1ccc(F)c(F)c1F (stereo not drawn) | 1.3 | 3 | 0 | -12 | -25 | 2424 | -5
CCN1CCN(c2ncc(C(=O)N3CCN(c4ccccc4OC)CC3)c3ccccc23)CC1 | 3.4 | -10 | 1 | -5 | -2 | 4740 | .
CC(C)Oc1ccc(CNC(=O)Cn2c(=O)c3cccn3c3cccnc32)cc1 | 0.0 | 10 | 13 | 6 | -6 | 5757 | -1
Cn1c(-c2ccc(=O)[nH]c2)nc2ccccc21 | 1.6 | 3 | -12 | 3 | -27 | 4262 | 3
COc1cccc(NC(=O)c2csc3c2CCCC3)c1 | 9.9 | 11 | 12 | 2 | -65 | 2482 | -4
S=C(NC1CCCCC1)c1ccc2c(c1)OCO2 | 4.8 | 14 | 7 | -3 | -17 | 20422* | -5
N#C/C(=C\c1cccnc1)C(=O)Nc1ccccc1 | 4.0 | 9 | 4 | 2 | -24 | 9523 | .
Cc1cc(C(=O)NC2CCCc3c2cnn3-c2ccc(C)c(C)c2)n(C)n1 (stereo not drawn) | -2.0 | 2 | 11 | -6 | -12 | 6075 | 14
Cc1cc(NS(=O)(=O)c2ccc(NC(=O)c3ccc(Br)o3)cc2)nc(C)n1 | -1.1 | 9 | 2 | 3 | 8 | 2596 | 3
O=C(OCc1cc(-c2ccccc2)no1)c1ccc2ccccc2n1 | 4.5 | -5 | 1 | 11 | -10 | 9510 | -5
